High-throughput results: PubChem BioAssay, National Center for Advancing Translational Sciences (NCATS)
PMP22 txn prim – Cell-based coincidence reporter assay to measure PMP22 gene transcription in S16 Pmp22-F2sN cells - Primary screen | S16 Pmp22-F2sN Schwann cells (luciferase reporters placed in the Pmp22 gene), FLuc/NLuc coincidence luminescence, 24 h | Potency, µM (doses to about 57.5 µM), for inactives: at the top dose activity change, negative = inhibition, hits mostly inhibitors | 2% of 43,000 active | AID 1508649, 2021; active = clear falling dose curves in both reporters; inconclusive = both reporters move, but less clearly or upward; inactive = either reporter flat; the % is the NLuc reporter signal; also: % is scaled to controls: 0 for no effect and ±100 for the full control effect; some results filed as inactive show a strong effect at the top dose
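Schwann cells carrying the coincidence reporter were exposed to library compounds for 24 h at 37C, then lysed and read for FLuc and, after quenching, NLuc luminescence on a CCD imager.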
HTT prom inh – Primary qHTS for Identification of Small Molecule Inhibitors of Huntingtin Promoter Activity. 0.93% of 48,000 active. Potency, µM (titrated, usually from 57.5 µM), for inactives: at the top dose activity change, negative = inhibition, actives largely listed as inhibitors. HEK293 HTT promoter firefly luciferase reporter (activity 0% = vehicle and -100% = no light), 24 h. AID 1508623, 2021; active = well fitted inhibition curve with a large enough effect; inconclusive = small, poorly fitted or top-dose-only effect; inactive = no such curve, though single readings can be large or run the other way; also: nearly all actives have a fitted effect of over 50% in size
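Firefly luciferase signal from promoter-reporter HEK293 cells was scaled between vehicle (0%) and zero RLU (-100%). Compounds were tested at final concentrations of up to 57.5 uM over 24 h at 37 degrees C. PTC124 at 50 uM final served as control inhibitor.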
Numbers without * were called inactive; ? = inconclusive; . = not tested or not shown; [ ] = another dose, or the depositor's remark. Potency is read from the fitted curve at half-maximal effect. Not a hit list (roughly 2.6% active in at least one column).

SMILES	PMP22 txn prim	HTT prom inh
COc1ccc(-n2cc(-c3ccccc3)c3c(SC(C)C(C)=O)ncnc32)cc1 (centres undefined)	-62%	-22%
Cc1ccc(Cl)cc1N1CCN(C(=O)c2cc(S(=O)(=O)N3CCCCC3)cn2C)CC1	?	?
Cc1noc(C)c1S(=O)(=O)NCCc1csc2nc(-c3ccc(Cl)cc3)nn12	?	?
Clc1ccc(CN2CCc3nc(Nc4ccc5c(c4)OCCO5)ncc3C2)cc1	?	?
CCOC(=O)c1c(S(=O)(=O)NCC(=O)NCc2cccc(C)c2)c(C)n(C)c1C	-1%	-2%
COC(=O)c1ccc2c(=O)n(CCCCCC(=O)NC(C)C)c(=O)[nH]c2c1	?	?
CSc1cccc(NC(=O)C2CCCN(S(=O)(=O)c3ccc4c(c3)CCCN4C(C)=O)C2)c1 (centres undefined)	-14%	?
CCCOc1ccccc1C(=O)N1CCCCC1CCN1CCCCC1 (centres undefined)	-6%	-4%
COc1cccc(-c2nc(S(=O)(=O)c3ccc(Cl)cc3)c(NCc3ccccc3)o2)c1	-8%	-22%
CC(NC(=O)c1ccc(Cn2c(=O)c3cccn3c3cccnc32)cc1)c1ccccc1 (centres undefined)	5%	-16%
Cc1nn2c(=O)cc(COC(=O)c3ccco3)nc2s1	?	-3%
CC(Oc1ccccc1)C(=O)Nc1nnc2n1CCS2 (centres undefined)	11%	-19%
CCOc1ccccc1NC(=O)C1CCN(S(=O)(=O)c2ccccc2)CC1	-7%	-28%
CCCCC(F)(F)[C@@]1(O)CC[C@H]2[C@H](CC(=O)[C@@H]2CCCCCCC(=O)O)O1	.	-1%
O=C(NCCCN1CCN(c2cccc(Cl)c2)CC1)Nc1ccccc1C(F)(F)F	?	-15%
Cc1cc(O)c(CN2CCN(c3ccc(F)cc3)CC2)c2oc(=O)cc(C)c12	-74%	-23%
CCC(C)n1c(=N)c(C(=O)NC2CCCCC2)cc2c(=O)n3cc(C)ccc3nc21 (centres undefined)	-17%	-9%
N#CC1=C2SCN(C3CCCCC3)CN2C(=O)CC1c1c(F)cccc1Cl (centres undefined)	9.5µM*	-18%
CC(=O)c1cccc(NC(=O)c2sc(-n3nc(C)c(CCC(C)C)c3C)nc2C)c1	-18%	?
CCCC(=O)NCC1(N(C)C)CCCCC1	-25%	-14%
CN(C)CCCn1c(-c2ccc(Cl)cc2)csc1=Nc1ccccc1	?	-28%
COCCNC(=O)c1ccc2c(c1)N=C(C)c1cc(C)ccc1S2	?	?
N#Cc1ccc(NC(=O)Nc2ccccc2Br)c2n[nH]nc12	.	14%
CN(C)c1ccc(C(CNC(=O)c2ccccc2Cl)N2CCCC2)cc1 (centres undefined)	0%	11%
CC1CCCCN1CCCNC(=O)Cn1ncc2c([nH]c3ccccc32)c1=O (centres undefined)	-12%	4%

New compounds follow:
SMILES	PMP22 txn prim	HTT prom inh
CC(C)CCNC(=O)Cn1c(-c2cccs2)cc2cc(F)ccc21	22%	-22%
CC(NCCc1ccc(O)cc1)C(O)c1ccc(O)cc1 (centres undefined)	.	-1%
CCOC(=O)C1CCN(c2ncnc3c2c(-c2ccccc2)cn3-c2cccc(C)c2)CC1	30%	?
CCOc1ccc(CNC(=O)C2=Cc3cccc(OC)c3OC2)cc1	-4%	44%[activator]
Cc1cc(C)nc(NS(=O)(=O)c2ccc(NC(=O)COc3ccc(C(C)(C)C)cc3)cc2)n1	11%	-9%
COc1cccc(CNC(=O)c2cnc3c(-c4ccc(F)cc4)c(C)nn3c2C)c1	-31%	-6%
CCCCN(C)CCNC(=O)c1cc(-c2cccnc2)nc2ccc(S(=O)(=O)N3CCC(C)CC3)cc12	?	1%
CCc1ccc(-c2nn(CC(=O)NCc3ccccc3)c3c2cnc2ccc(F)cc23)cc1	-50%	44%[activator]
Cc1ccc2c(c1)N(C(=O)N1CCC(C(=O)NCCc3ccc(Cl)cc3)CC1)CC(C)O2 (centres undefined)	-11%	-11%
O=C(C1COc2ccccc2O1)N(Cc1cccnc1)c1nc2c(F)cccc2s1 (centres undefined)	-12%	-12%
COc1cccc(Cn2c(=O)n(-c3ccc(Br)cc3F)c(=O)c3sc4ccccc4c32)c1	-10%	-10%
COc1ccccc1CNS(=O)(=O)c1cc(C(=O)Nc2cccc(C(F)(F)F)c2)ccc1F	?	28µM*
COc1ccc(CNC(=O)CCc2c(C)c3cc4c(C)c(C)oc4cc3oc2=O)cc1OC	-12%	-3%
CCN(CC)S(=O)(=O)c1ccc2c(c1)N(CC(=O)N1CCN(c3ccccc3F)CC1)C(=O)CO2	?	-12%
COc1cccc(NC(=O)CSc2nc3c([nH]c4ccccc43)c(=O)n2-c2cc(C)cc(C)c2)c1	52%	?
CCOc1ccc(CNC(=O)c2ccc3c(Cl)c4c(nc3c2)CCCC4)cc1	?	3%
CCOC(=O)c1ccc(N2C(=O)c3n[nH]c(-c4cccs4)c3C2c2ccc(O)c(OC)c2)cc1 (centres undefined)	16µM*	?
Cc1cc2nc3c(=O)[nH]c(=O)nc-3n(C[C@H](O)[C@H](O)[C@H](O)CO)c2cc1C	.	3%[25.2 µM]
O=C(O)c1ccc(CNCc2ccccc2Cl)s1	-1%	-11%
Cc1ccc(C(=O)c2oc3ccccc3c2NC(=O)Cc2coc3ccc(C)cc23)cc1	2%	-8%
CCOC(=O)N1CCc2c(sc3c2c(=O)n(-c2ccc(F)cc2)c(=O)n3CC(=O)c2ccccc2)C1	2%	-6%
Cc1sc2ncn(CC(=O)Nc3cccc(C(F)(F)F)c3)c(=O)c2c1S(=O)(=O)N1CCN(C)CC1	-7%	-10%
CCC(=O)N1CCc2cc(Br)cc(S(=O)(=O)N3CCCC(C(=O)NCc4ccc(OC)cc4)C3)c21 (centres undefined)	?	-11%
Cc1ccccc1C(=O)OCc1cc(=O)n2nc(C3CC3)sc2n1	?	26%
CCOc1ccc(-c2nc(SC(C(C)=O)C(=O)N(C)C)c3c(=O)n(C)c(=O)n(C)c3n2)cc1 (centres undefined)	?	-3%

3 entries from above, arranged by the number in HTT prom inh, rising.
| SMILES | HTT prom inh |
| --- | --- |
| COc1ccc(-n2cc(-c3ccccc3)c3c(SC(C)C(C)=O)ncnc32)cc1 (centres undefined) | -22% |
| CCCOc1ccccc1C(=O)N1CCCCC1CCN1CCCCC1 (centres undefined) | -4% |
| CCOc1ccc(CNC(=O)c2ccc3c(Cl)c4c(nc3c2)CCCC4)cc1 | 3% |

Next part
SMILES	PMP22 txn prim	HTT prom inh
Cc1ccc2cccc(NC(=O)COc3ccccc3[N+](=O)[O-])c2n1	-9%	-7%
COc1ccc(C2=C(C)C(=O)N(Cc3ccc(C(=O)Nc4ccc(F)cc4C)cc3)S2(=O)=O)cc1	?	10µM*
O=C(Nc1ccc(C(=O)OCc2cc(=O)n3nc(C4CC4)sc3n2)cc1)c1cccc(Cl)c1	-6%	-3%
COc1cc(Cl)c(NS(=O)(=O)c2cc(-c3cc(C)no3)ccc2OC)c(OC)c1	-24%	-25%
Cc1ccc(C)c(CN2C(=O)c3ccccc3S(=O)(=O)c3ccc(C(=O)NCCCN4CCCC(C)C4)cc32)c1 (centres undefined)	?	-21%
COc1ccc(Nc2c(-c3ccc(C)o3)nc3ccc(Cl)cn23)cc1	?	6%
Cc1cccc(Cn2c(=O)n(-c3ccccc3C)c(=O)c3c2c2cc(C)ccc2n3C)c1	-3%	-6%
CCN1CCN(CCCNC(=O)CS(=O)(=O)Cc2nc(-c3cccc(OC)c3)oc2C)CC1	7%	-3%
COc1ccc(-n2nc(C(=O)NCCc3ccc(Cl)cc3)c3c4ccccc4n(C)c3c2=O)cc1Cl	-9%	6%
Cc1cc(C)c2oc(C(=O)Nc3c(C)n(C)n(-c4ccccc4)c3=O)cc(=O)c2c1	-1%	-4%
CCC(=O)N1CCc2cc(S(=O)(=O)NCCC(=O)Nc3ccc(OC)c(OC)c3)ccc21	-7%	-9%
O=C(CSc1cn(CCNC(=O)c2c(F)cccc2F)c2ccccc12)Nc1ccccc1F	?	-8%
CCCCC(CC)CNC(=O)C1CCC(CNS(=O)(=O)c2cccc3nsnc23)CC1 (centres undefined)	?	?
COc1cc(O)ccc1C1CC(=O)Nc2c1c(=O)nc(SCc1ccccc1C)n2C (centres undefined)	15%	-17%
COCc1cc(C)nc2sc(C(=O)Nc3cc(C)ccc3F)c(N)c12	-18%	70%[activator]
CCCC(=O)OCc1cnc(C)c2oc(=O)c(C(=O)Nc3cccc(C(F)(F)F)c3)cc12	?	-5%
CC(C)CN(CCCNC(=O)c1cn(C)c2ccc(S(=O)(=O)N(C)C3CCCCC3)cc2c1=O)CC(C)C	-21%	89%[activator][11.5 µM]
CCC(=O)N1CCc2cc(Br)cc(S(=O)(=O)NCCc3ccccc3Cl)c21	?	?
CC1=C(C(=O)Nc2ccc(Cl)cc2)C(c2cccs2)n2nc(SCc3cccc(Cl)c3)nc2N1 (centres undefined)	3%	-1%
O=C(NCCCN1CCN(c2ccccc2)CC1)c1nnc(Cc2ccc(F)cc2)o1	-11%	-29%
Cc1ccc(NC(=O)c2ccc(NC(=O)CCS(=O)(=O)c3cccs3)cc2)cc1F	41%	?
Cc1ccc(N2CCn3c2nc2c3c(=O)n(CCCc3ccccc3)c(=O)n2C)cc1	5%	-5%
COc1ccc(N2CCN(CC(O)COc3ccc(C(C)C)c(C)c3)CC2)cc1 (centres undefined)	-25%	-20%
CCOc1ccc(N2CC(C)Cn3c2nc2c3c(=O)n(Cc3c(F)cccc3Cl)c(=O)n2C)cc1 (centres undefined)	-11%	-7%
Cc1cccc(CC(=O)NC2CC(=O)N(c3cccc(F)c3)C2)c1 (centres undefined)	1%	5%

Record cards, from the list above. Screens in order: PMP22 txn prim	HTT prom inh
Listed for O=C(CSc1cn(CCNC(=O)c2c(F)cccc2F)c2ccccc12)Nc1ccccc1F = ?	-8%
Listed for COc1cc(Cl)c(NS(=O)(=O)c2cc(-c3cc(C)no3)ccc2OC)c(OC)c1 = -24%	-25%

Carrying on.
SMILES	PMP22 txn prim	HTT prom inh
Cc1cc(-c2nc3ncccc3o2)ccc1NC(=O)COc1cc(C)c(Cl)c(C)c1	3%	-15%
COc1ccc(OC)c(NC(=O)Cn2cnc3ccc(S(=O)(=O)N4CCC(C)CC4)cc3c2=O)c1	-14%	-29%
COc1ccc(NC(=O)c2cccc(N3CCCS3(=O)=O)c2)cc1	?	33%[activator]
COc1ccccc1CNS(=O)(=O)c1c(C(=O)N2CCC(C)CC2)c(C)n(C)c1C	?	-16%
COc1ccc(CCNC(=O)CSc2nc3nc(C)c(Cc4ccc(C)cc4)c(C)n3n2)cc1OC	-15%	?
COc1cc(-c2noc(-c3ccc(N4CCOCC4)c([N+](=O)[O-])c3)n2)cc(OC)c1OC	-2%	-12%
CCc1ccc(S(=O)(=O)c2cn(C)c3cc(N4CCCC4)c(F)cc3c2=O)cc1	?	-9%
CN(C)c1ccc(CNc2nc(-c3ccco3)nn2S(=O)(=O)c2ccc(Cl)cc2)cc1	?	38%[activator]
O=C(Nc1ccc(F)c(F)c1)c1cc(S(=O)(=O)NC2CCCCCC2)ccc1F	?	25µM*
COc1ccc(N(C(=O)c2cccc(C)c2)S(=O)(=O)c2ccc(C)cc2)cc1	-23%	?
CN(C)c1ccc(CNC(=O)C2CCN(S(=O)(=O)c3ccc4c(ccn4C)c3)CC2)cc1	0%	-19%
N#Cc1ccccc1Cn1cnc2nc3c(cc2c1=O)CCCC3	1%	-8%
COc1cc2c(cc1OC)C(COc1ccc3c(C)cc(=O)oc3c1)N(C(=O)c1cccc(OC)c1OC)CC2 (centres undefined)	?	-28%
CCCCN(CCCC)CCNC(=O)Cn1nc(CC)n2c(cc3sccc32)c1=O	-14%	11%
Nc1ccc(-c2ccc3ncc4ccc(=O)n(-c5cccc(C(F)(F)F)c5)c4c3c2)cn1	.	?
CCCCc1ccc(-n2nc3cc(Cl)c(NC(=O)c4ccc(OC)cc4)cc3n2)cc1	-8%	16%
Cc1cc(F)ccc1NC1(c2ccccc2)C(=O)c2ccccc2C1=O	-17%	-10%
Cc1ccc(C)c(NC(=O)Cn2ncc3c([nH]c4ccccc43)c2=O)c1	1%	5%
CCOC(=O)Cc1ccc(NC(=O)NCc2ccc3c(c2)CCN3C(=O)CC)cc1	9%	-40%
CCCCN(CCCNC(=O)CN1N=C(c2ccccc2)CCC1=O)c1ccccc1	-1%	?
Cc1ccc(OC(C)C(=O)NCC2(N3CCOCC3)CCCCC2)cc1C (centres undefined)	?	-24%
Cn1c(=O)c2c(c3ccccc31)OC(=O)CC2c1ccc(C(F)(F)F)cc1 (centres undefined)	11%	-10%
CCOc1ccc(-c2nc(SCC(=O)c3ccccc3)n[nH]2)cc1	-18%	-2%

Ordered by formula weight (low to high): 3 of the compounds above.
SMILES	PMP22 txn prim	HTT prom inh
N#Cc1ccccc1Cn1cnc2nc3c(cc2c1=O)CCCC3	1%	-8%
CCCCN(CCCNC(=O)CN1N=C(c2ccccc2)CCC1=O)c1ccccc1	-1%	?
CN(C)c1ccc(CNc2nc(-c3ccco3)nn2S(=O)(=O)c2ccc(Cl)cc2)cc1	?	38%[activator]
